From PubChem
CtBP-E1A inh – qHTS Assay for Inhibitors of the CtBP/E1A Interaction. CtBP / adenovirus E1A interaction (AlphaScreen). AlphaScreen GST-E1A/His-CtBP binding, 1536-well; hits give low values; control for the full effect not named in the record. activity change, % (no concentration beside the values). 340,000 compounds, 0.49% hits. AID 651724, 2012; in the data active means activity change below about -65%; inconclusive means about -30% to -65%; inactive means above about -30%; note: % is set by controls: 0 for no effect and ±100 for the full control effect
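AlphaScreen with 125 nM GST-E1A and 125 nM His-CtBP (5X stocks) in Tris pH 8.0, 300 mM NaCl, BSA, Tween 20, TCEP. Compounds preincubated 2 h at 37 deg C, then glutathione donor/nickel acceptor beads added for 1 h at 37 deg C in dark.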
PINK1 modulator – A Quantitative High throughput Screen to Identify Chemical Modulators of PINK1 Expression; PINK1 immunofluorescence, high-content cytometry, 24 h; Potency, µM (series often up to 76.6 µM), for the others: at the highest dose activation (PINK1 increase), actives largely listed as activators; 410,000 compounds, 0.2% hits; AID 624263, 2012; active = well fitted activation curve with a large enough effect; inconclusive = small, poorly fitted or top-dose-only effect; inactive = flat fitted curve, though single readings scatter; cell line not stated here;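 note: potency is the fitted concentration of half-maximal effect; % of control where 0% means no effect; nearly all actives have a fitted effect of over 65% in size; a mitochondrial uncoupler was the plate control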
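A stable cell line was treated with compounds at 5 concentrations for 24 hours, with CCCP as control. PINK1 levels and mitochondrial localization were measured by immunofluorescence with mitochondrial, cell and nuclear markers after fixation, read by laser-scanning cytometry.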
Six1-Eya2 blk – qHTS Assay for Inhibitors of the Six1/Eya2 Interaction; 360,000 compounds, 0.56% hits; AlphaScreen GST-Six1/His-Eya2 binding, biochemical; hits give low values; control for the full effect not named in the record; activity change, % (test concentration not listed); AID 651725, 2012; Homeobox protein SIX1 (Homo sapiens) + Protein phosphatase EYA2 (Homo sapiens), …; in the data active = activity change below about -65%; inconclusive = about -30% to -65%; inactive = above about -30%; note: % is set by controls: 0 for no effect and ±100 for the full control effect
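AlphaScreen with GST-Six1 and His-Eya2 (5X mix: 250 nM and 500 nM), glutathione donor and nickel acceptor beads; buffer 50 mM Tris pH 8.0, 300 mM NaCl, 1 mM TCEP; 1 h at 37 C in the dark.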
TRPML1 agonist – qHTS for Agonists of the Human Mucolipin Transient Receptor Potential 1 (TRPML1); AID 624414, 2012; activation, % (test concentration not listed); Mucolipin-1 (Homo sapiens), Q9GZU1; 410,000 compounds, 0.12% hits; TRPML1-expressing cells, Ca2+ dye fluorescence, FDSS; host cell line not named in the record; reference of the full effect not given here; in the data active = activation above about 50%; inconclusive = about 30% to 50%; inactive = below about 30%; note: 0% is about no effect; the text of the record puts the active cut at 80%
Target sequence (Q9GZU1 whole entry, looked up): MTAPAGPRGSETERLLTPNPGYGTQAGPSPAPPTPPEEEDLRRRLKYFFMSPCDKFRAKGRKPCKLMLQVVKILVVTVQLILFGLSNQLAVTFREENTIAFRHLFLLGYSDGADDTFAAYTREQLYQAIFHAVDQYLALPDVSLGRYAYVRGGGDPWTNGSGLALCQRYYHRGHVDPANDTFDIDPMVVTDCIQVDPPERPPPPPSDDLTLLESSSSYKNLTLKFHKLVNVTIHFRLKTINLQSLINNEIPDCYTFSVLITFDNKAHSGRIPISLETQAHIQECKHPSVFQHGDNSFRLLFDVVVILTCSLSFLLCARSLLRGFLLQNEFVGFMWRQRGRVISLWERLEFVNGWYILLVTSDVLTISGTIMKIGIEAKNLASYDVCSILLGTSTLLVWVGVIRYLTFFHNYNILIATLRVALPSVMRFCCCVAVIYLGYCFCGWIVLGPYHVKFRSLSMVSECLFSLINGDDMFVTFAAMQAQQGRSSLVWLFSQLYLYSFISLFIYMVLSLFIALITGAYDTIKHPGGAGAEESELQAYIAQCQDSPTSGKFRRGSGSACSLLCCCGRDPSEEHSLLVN
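In this qHTS format, compounds were pin-transferred onto Ca8-dye-loaded TRPML1-DL cells induced with Tet overnight, and intracellular Ca2+ fluorescence was recorded kinetically for 110 s after a 10 s baseline. A subsequent 4uM final 54-4 (EC80) addition followed by a second 110 s read served as the antagonist phase.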
D2 PAM – Beta-Arrestin HTS for Positive Allosteric Modulators of the Human D2 Dopamine Receptor: Potentiators; DiscoveRx D2 beta-arrestin cells, luminescence, 90 min; 100% = 57 uM dopamine signal; potentiation, % (concentration not given with the values); 360,000 compounds, 0.23% hits; active = potentiation of 50% or more; inconclusive = 30% to 50%; inactive = 30% or less;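 note: tested on top of an EC20 dose of dopamine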
Target sequence (P14416 whole entry, looked up): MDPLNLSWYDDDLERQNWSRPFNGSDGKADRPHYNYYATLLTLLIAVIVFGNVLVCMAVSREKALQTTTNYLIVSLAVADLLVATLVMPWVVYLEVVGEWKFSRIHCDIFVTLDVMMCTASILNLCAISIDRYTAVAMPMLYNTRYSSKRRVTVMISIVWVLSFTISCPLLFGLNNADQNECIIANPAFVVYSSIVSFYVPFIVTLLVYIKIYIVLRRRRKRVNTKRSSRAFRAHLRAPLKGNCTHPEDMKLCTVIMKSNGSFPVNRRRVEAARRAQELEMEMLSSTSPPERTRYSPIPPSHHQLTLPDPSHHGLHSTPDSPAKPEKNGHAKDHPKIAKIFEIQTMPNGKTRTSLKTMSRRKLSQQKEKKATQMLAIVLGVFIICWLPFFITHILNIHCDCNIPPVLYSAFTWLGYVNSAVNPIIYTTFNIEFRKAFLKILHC
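PathHunter beta-arrestin assay in DiscoveRx D2 cells. Compounds were added with an EC20 of dopamine (50 nM final) for 90 min at 37 deg C. Luminescence was read 1 h after detection reagent, with 57 uM dopamine as the EC100 control.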
D2 ag – Beta-Arrestin HTS for Positive Allosteric Modulators of the Human D2 Dopamine Receptor: Agonists. DiscoveRx PathHunter D2 beta-arrestin, luminescence, 90 min; 100% = 57 uM dopamine signal. activation, % (no concentration beside the values). 360,000 compounds, 0.084% hits; in the data active = activation above about 40%; inconclusive = about 15% to 40%; inactive = below about 15%; note: compound concentration not given in the record; the text of the record calls up to 30% inactive
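DiscoveRx PathHunter D2 beta-arrestin cells (2,100/well) attached overnight, then compound-stimulated 90 min at 37 C in HBSS/10 mM HEPES/0.1% Tween-20 buffer; beta-galactosidase complementation read by luminescence after 1 h at ambient temperature. Dopamine 57 uM final (EC100) as control.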
* hit, by the source's call; ? = inconclusive; / = not tested or not shown; [ ] = dose if it differs, or a comment.

SMILES | CtBP-E1A inh | PINK1 modulator | Six1-Eya2 blk | TRPML1 agonist | D2 PAM | D2 ag
O=C(NC1CCCCCC1)c1nnc(Cc2ccc(Cl)cc2)o1 | 1 | 1.1% | -3 | -1.2 | -6 | -6.7
Cc1cccc(C)c1N1C(=O)CC(Sc2ccccc2N)C1=O (stereo unspecified) | 15 | 8.9% | 7 | -0.5 | -12 | -1.1
O=C(c1ccc(F)cc1)C1CCN(Cc2cn[nH]c2-c2ccc(F)cc2)CC1 | 3 | 1.5% | -12 | -0.3 | -26 | -2.8
O=C(OCC(=O)N1CCN(C(=O)COC(=O)c2ccncc2)CC1)c1ccncc1 | 0 | -1.6% | 4 | 0.2 | -4 | 0.8
CCCCOc1ccc(C2OC34CCCCC3C(C#N)(C#N)C2(C#N)C(=N)O4)cc1 (stereo unspecified) | -2 | -0.4% | -20 | 0.2 | ? | 7.4
O=C(Nc1ccccc1C(=O)NCc1ccco1)c1ccco1 | -15 | 1.9%[38.3 µM] | -2 | 0.3 | -5 | 0.4
CCSCCOC(=O)C1=C(C)NC2=C(C(=O)CCC2)C1c1coc2ccccc2c1=O (stereo unspecified) | -9 | 3.8% | -19 | -0.2 | -34 | -3.1
CCOc1ccc(C(CC(=O)O)NC(=O)CCCOc2ccc(Cl)cc2C)cc1 (stereo unspecified) | -3 | -0.8% | -2 | 0.4 | -3 | 0.4
CCN(CC)CCNC(=O)c1cc2c(=O)n(C)c3ccccc3c2n1C | -17 | -3.6% | -14 | 0.7 | -13 | -1.8
COc1ccc(-n2c(Cc3cccn3C)nnc2SCC(=O)Nc2cccc(NC(C)=O)c2)cc1 | ? | ? | -21 | -0.1 | -6 | -1.3
COc1ccc(C2=Cc3ccc(OC(C)=O)cc3OC2)cc1 | 5 | 1.9% | 3 | 0.5 | 11 | 1.7
O=C(COC(=O)c1cc(Cl)cc(Cl)c1)NCc1ccco1 | / | 1.4% | -3 | -1.7 | -7 | -3.7
COc1cccc(NC(=O)CCC2CCN(C(=O)C(OC)c3ccccc3)CC2)c1 (stereo unspecified) | -3 | -1.9% | -8 | -0.6 | -11 | 0.6
Fc1cccc(CSc2ccc3nnc(-c4ccccn4)n3n2)c1 | ? | -2.2% | ? | 0.9 | 0 | 5.0
Cc1ccc(CC(=O)N2CCN(C(=O)C3CCCO3)CC2)cc1 (stereo unspecified) | 9 | -1.1% | -2 | 0.3 | -23 | -0.4
CCN1C[C@@H]2[C@@H]3C(=O)N(C)C(=O)[C@@H]3[C@](C)(C1=O)N2C(=O)c1ccccc1 | 9 | -0.5% | 1 | -0.9 | -7 | -3.7
CCc1ccc(Nc2ccc(C(N)=O)cc2[N+](=O)[O-])cc1 | / | 0.3% | -9 | 2.3 | -5 | -6.0
COC(=O)c1ccccc1NC(=O)N1c2ccccc2CC1C (stereo unspecified) | 21 | 13%[38.3 µM] | 7 | -0.3 | -8 | -2.0
CCNC(=S)NNc1nncc2ccccc12 | 1 | -1.1% | 6 | 0.9 | -8 | -4.2
Cc1ccc(S(=O)(=O)N2C[C@H]3C(=O)C[C@@H]4C(=O)N(c5ccccc5)C(=O)[C@@H]4[C@@H]3C[C@H]2c2cccs2)cc1 | -14 | 0.0% | -1 | 1.5 | -1 | -2.1
COc1ccc(NS(=O)(=O)c2cc(NC(=O)COc3ccccc3F)ccc2OC)cc1 | -25 | 0.7% | -3 | 1.9 | -1 | 1.6
COC(=O)C(C)Oc1cc(OC(C)C(=O)OC)c2c(C)c(Cl)c(=O)oc2c1 (stereo unspecified) | 5 | 2.3% | -3 | -0.7 | 0 | 1.2
CCCNC(=O)c1cccc(NC(=O)C(C)C)c1 | / | 0.8% | -1 | 0.0 | -4 | -5.3
C/C(CC(=O)Nc1ccc([N+](=O)[O-])cc1)=N/NC(=O)C1C2CCCCC21 (stereo unspecified) | -15 | 4.4% | -10 | 1.8 | -3 | 1.6
O=C1NC[C@@H](CCCCN2C[C@H](Cc3ccc(O)cc3)N(Cc3ccccc3)C(=O)C2=O)N(CCc2ccc(O)cc2)C1=O | 1 | -0.1% | -17 | -0.3 | / | /

Carrying on.
SMILES | CtBP-E1A inh | PINK1 modulator | Six1-Eya2 blk | TRPML1 agonist | D2 PAM | D2 ag
c1cnn2c(-c3ccc4c(c3)CCO4)cnc2c1 | 0 | -0.2% | 3 | -0.4 | -5 | -7.3
CCOC(=O)c1c(NCc2ccc3c(c2)OCO3)c2ccccc2[nH]c1=O | 2 | -1.3% | -2 | 2.4 | 11 | -1.6
CN(Cc1ccc(Cl)c(Cl)c1)C(=O)c1[nH]c(C(F)(F)F)nc1-c1ccccc1 | -16 | 3.0% | -27 | 0.1 | -5 | 0.1
CC(=O)OCCNc1cc(SCc2ccco2)c2nonc2c1[N+](=O)[O-] | -13 | 2.1% | -8 | 2.7 | -10 | -5.0
COc1cc(C)c(NC(=S)NCCCN2CCOCC2)cc1OC | 8 | 0.4% | 3 | 0.2 | 5 | -2.6
COc1cc(OC)cc(-c2cc3nc(C)c(CCC(=O)O)c(=O)n3[nH]2)c1 | ? | 0.4% | ? | -0.8 | -2 | -2.3
COc1cccc(NC(=O)c2cc(Cl)nnc2Cl)c1 | -20 | -2.4% | -11 | -0.3 | -1 | -0.9
CC(=O)c1ccc(OCC(=O)c2cc(C)n(-c3ccc4c(c3)OCO4)c2C)cc1 | -16 | 0.8% | -13 | -0.4 | -15 | 0.9
Cc1c(C)c2ccc(OCC(=O)c3ccccc3)cc2oc1=O | -18 | 0.2% | -1 | 3.7 | -12 | -1.6
Cn1c(COc2ccccc2)nnc1SCC(=O)Nc1ccc2c(c1)OCO2 | 2 | ? | -3 | 0.1 | -8 | -1.2
COc1ccc(C(CNC(=O)c2cc(C)on2)N(C)C)cc1 (stereo unspecified) | -12 | -1.5% | 2 | -0.6 | -1 | -7.8
Cc1ccc(-n2ncc3c(NNC(=O)c4ccco4)ncnc32)cc1Cl | 1 | 6.4% | 3 | -0.6 | 2 | 0.3
CC1CN(C(=O)c2cccc(NS(=O)(=O)c3ccc(Br)cc3)c2)CC(C)O1 (stereo unspecified) | -1 | 0.0% | -2 | -0.9 | -10 | 0.2
CN(C)c1ccc(/C=N/NC(=O)c2ccco2)cc1 | 0 | 7.3% | 1 | 0.1 | 11 | 0.5
CCc1nnc(NC(=O)CSc2nnc(-c3ccoc3C)n2CC(C)C)s1 | 2 | -0.8% | -1 | -0.9 | -23 | -6.1
O=C(CSc1nc2ccccc2n1CC(=O)N1CCCC1)Nc1ccc2c(c1)OCO2 | 4 | 24%[38.3 µM] | -5 | 0.1 | -11 | -0.7
O=C(NCCO)/C(=C\c1ccc2c(c1)OCO2)NC(=O)c1ccc(Br)cc1 | 4 | 2.3% | 11 | -0.1 | -14 | -6.7
CCN(N=O)c1ccc(C=C2C=Cc3ccccc32)cc1 | 7 | -0.3% | ? | 0.5 | -16 | 3.0
O=C(CNC(=O)c1cccc(Cl)c1)N/N=C/c1cccnc1 | / | -0.5% | -4 | 1.1 | 5 | 5.0
Cc1ccccc1NC(=S)Nc1cccc([N+](=O)[O-])c1 | -3 | 1.0% | 10 | 0.0 | -11 | 1.0
O=C(CN1C(=O)c2ccccc2S1(=O)=O)N1CCN(c2ccccc2)CC1 | 6 | 6.3%[38.3 µM] | 1 | 3.0 | 0 | 1.5
Nn1c(SCC(=O)Nc2ccccc2F)nnc1C1CCCCC1 | -10 | -0.5% | 4 | 0.6 | -10 | 1.8
Cc1sc(NC(=O)c2cccs2)nc1-c1ccccc1 | 0 | 24% | -1 | 0.3 | -4 | -3.1
COc1ccc(CCNC(=O)C2CCCN(c3nc(C)cc(C)n3)C2)cc1 (stereo unspecified) | -2 | -0.7% | 6 | -0.5 | -2 | -1.2
Cc1cc(C)n(-c2ccc(C(=O)Oc3ccc4c(c3)OCO4)cc2)n1 | 11 | 0.0% | 8 | 1.2 | -2 | -2.4

Profiles, looked up by structure. Order of screens: CtBP-E1A inh	PINK1 modulator	Six1-Eya2 blk	TRPML1 agonist	D2 PAM	D2 ag
Cc1c(C)c2ccc(OCC(=O)c3ccccc3)cc2oc1=O as listed: -18	0.2%	-1	3.7	-12	-1.6
COc1ccc(CCNC(=O)C2CCCN(c3nc(C)cc(C)n3)C2)cc1 (stereo unspecified) as listed: -2	-0.7%	6	-0.5	-2	-1.2

A second format for part of the listing above:
molecule	CtBP-E1A inh	PINK1 modulator	Six1-Eya2 blk	TRPML1 agonist	D2 PAM	D2 ag
CC(=O)OCCNc1cc(SCc2ccco2)c2nonc2c1[N+](=O)[O-]	-13	2.1%	-8	2.7	-10	-5.0
CCOC(=O)c1c(NCc2ccc3c(c2)OCO3)c2ccccc2[nH]c1=O	2	-1.3%	-2	2.4	11	-1.6

(further entries)
SMILES | CtBP-E1A inh | PINK1 modulator | Six1-Eya2 blk | TRPML1 agonist | D2 PAM | D2 ag
COc1ccc(CNC(=O)CCNC(=O)N2CC(=O)Nc3ccccc32)cc1 | -4 | 1.9% | 0 | -0.6 | -27 | -0.6
CCCc1nc2ccccc2c(=O)n1/N=C/c1ccc(O)c(O)c1 | -11 | 0.2% | -21 | 0.1 | 13 | 0.5
Cn1c(C(=O)NCCc2c[nH]c3ccccc23)cc2sccc21 | -4 | 1.1% | -24 | 0.1 | -4 | 2.3
Cc1nn(CC(=O)NCCCN2CCCC2=O)c(C)c1[N+](=O)[O-] | -5 | 1.6% | -6 | 0.4 | -27 | 0.6
CCOc1ccc(NC(=O)CN(C)C(=O)CC(NC(=O)c2ccccc2)c2ccccc2)cc1OCC (stereo unspecified) | -7 | 3.9% | -13 | -0.9 | -21 | -1.1
COC(=O)c1c(C(C)=O)c(C)n(C)c1C | -1 | 0.1% | 3 | 0.6 | -1 | 0.1

An excerpt of these results, tab-delimited.
SMILES	CtBP-E1A inh	PINK1 modulator	Six1-Eya2 blk	TRPML1 agonist	D2 PAM	D2 ag
CCN1C[C@@H]2[C@@H]3C(=O)N(C)C(=O)[C@@H]3[C@](C)(C1=O)N2C(=O)c1ccccc1	9	-0.5%	1	-0.9	-7	-3.7
CCc1ccc(Nc2ccc(C(N)=O)cc2[N+](=O)[O-])cc1	/	0.3%	-9	2.3	-5	-6.0
COC(=O)c1ccccc1NC(=O)N1c2ccccc2CC1C (stereo unspecified)	21	13%[38.3 µM]	7	-0.3	-8	-2.0
CCNC(=S)NNc1nncc2ccccc12	1	-1.1%	6	0.9	-8	-4.2
